BJeLR viability – BJeLR cell viability loss, primary screen, luminescence, CellTiterGlo ATP; BJeLR fibroblasts viability, 48 h; HRASV12, hTERT and SV40 LT/ST transformed; viability loss activity score, % (test concentration not listed); 0.64% of 30,000 active; AID 2275, 2010; in the data active = viability loss activity score above about 50%; about a fifth of its hits are not listed in these tables;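 also: higher score means fewer live cells and less ATP luminescence; stock transfer was 50 or 100 nL into about 30 µL; 0% = vehicle wells and 100% = a reference killing control; one replicate is shown; the record names a cut of 85%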
A1 inhib – inducers of caspase activity in MEF A1-2A-BIM cells, primary screen, A1 inhibitor project, cell-based, CaspaseGlo luminescence. caspase-Glo luminescence, 3 h; percent of clofoctol signal, DMSO as zero. caspase activation, % (concentration not given with the values). 0.51% of 21,000 active. AID 2241, 2010;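 active = most replicate scores above 10, or exactly half above 10 with mean activity above 10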;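 also: effector caspase 3 and 7 activity cleaving a DEVD luciferin substrate; 50 nL library stock added to about 30 µL; numbers are from one replicate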
Starred values were filed as active, the others as inactive; . = not tested or not shown. These rows are one share of the data; the hit share may differ from the screen's.

molecule | BJeLR viability | A1 inhib
C[C@H]1CN([C@@H](C)CO)C(=O)c2cc(NC(=O)C3CC3)ccc2O[C@@H]1CN(C)S(=O)(=O)c1ccc(F)cc1 | -3.3 | 0.1
C[C@H](CO)N1C[C@H](C)[C@@H](CN(C)Cc2ccc(Cl)c(Cl)c2)Oc2ccc(NC(=O)Nc3ccccc3)cc2C1=O | 4.0 | 0.4
Cc1ccc(N(C(=O)COc2c(C)cccc2C)S(=O)(=O)c2ccc(Cl)cc2)cc1 | 2.0 | .
Cc1noc(C)c1NC(=O)Nc1ccc2c(c1)C(=O)N([C@H](C)CO)C[C@@H](C)[C@H](CN(C)C(=O)Nc1ccc(C(F)(F)F)cc1)O2 | 0.8 | 1.4
C[C@@H]1CN([C@@H](C)CO)C(=O)c2cc(NS(=O)(=O)c3ccccc3)ccc2O[C@@H]1CN(C)Cc1ccncc1 | 4.1 | -0.2
Cc1noc(C)c1NC(=O)Nc1cccc2c1O[C@@H](CN(C)S(=O)(=O)c1cccs1)[C@H](C)CN([C@@H](C)CO)C2=O | 0.7 | .
C[C@@H]1CN([C@@H](C)CO)C(=O)c2cccc(NS(=O)(=O)c3ccc(Cl)cc3)c2O[C@H]1CN(C)Cc1ccc(Oc2ccccc2)cc1 | -2.0 | .
O=C(Cn1cnc2c(oc3ccccc32)c1=O)N1CCCc2ccccc21 | -1.3 | 0.9
Cc1noc(C)c1NC(=O)N(C)C[C@@H]1Oc2ccc(NC(=O)Nc3ccc(C(F)(F)F)cc3)cc2C(=O)N([C@@H](C)CO)C[C@@H]1C | 5.2 | 0.7
CCOC(=O)CSc1nc(NC#N)nc(N(CC)CC)n1 | 2.2 | -0.3
C[C@H](CO)N1C[C@H](C)[C@H](CN(C)Cc2ccccc2)Oc2c(NC(=O)C3CCOCC3)cccc2C1=O | 0.9 | .
O=C(O)CCN1C(=O)c2cc(Cl)c(Cl)cc2C1=O | 1.7 | 0.7
Cc1cc(=O)[nH]c(SC(C(=O)O)c2ccccc2)n1 (stereo not given) | -4.2 | 0.0
CC(C)(C)c1ccc(C(=O)N2CCC(c3nc(-c4ccc(Cl)cc4)no3)CC2)cc1 | -1.3 | 0.3
Cc1[nH]n(-c2ccccc2)c(=S)c1C=NC(C)Cc1ccccc1 (stereo not given) | 1.2 | .
Nc1c(Br)cc(Br)cc1CNC1CCC(O)CC1 (stereo not given) | -1.4 | -0.4
Cc1noc(C)c1S(=O)(=O)Nc1cccc2c1O[C@H](CN(C)S(=O)(=O)c1cccs1)[C@H](C)CN([C@@H](C)CO)C2=O | 3.0 | .
Cc1ccc(S(=O)(=O)N(C)C[C@H]2Oc3c(NC(=O)C4CC4)cccc3C(=O)N([C@@H](C)CO)C[C@@H]2C)cc1 | -1.9 | .
Cn1c(=O)/c(=C/c2ccccc2)n(C)c(=O)/c1=C/c1ccccc1 | -0.3 | 1.7
CCN1c2ccccc2NC2N=C(OC)C(c3ccccc3)C21 (stereo not given) | 2.6 | .
COc1ccc(NC(=O)Nc2cccc3c2O[C@H](CN(C)C(=O)Nc2ccccc2)[C@H](C)CN([C@@H](C)CO)C3=O)cc1 | 0.3 | .
C[C@H](CO)N1C[C@H](C)[C@H](CN(C)S(C)(=O)=O)Oc2ccc(NC(=O)Nc3ccc(F)cc3)cc2C1=O | 2.3 | 0.5
C[C@@H]1CN([C@@H](C)CO)C(=O)c2cc(NC(=O)C3CCCCC3)ccc2O[C@H]1CN(C)C(=O)Nc1ccc(C(F)(F)F)cc1 | 3.4 | 0.0
C=CCc1cccc(C=Nc2cccn3cc(-c4ccccc4)nc23)c1O | 5.8 | .
COc1ccc(NC(=O)N(C)C[C@H]2Oc3c(NC(=O)NC(C)C)cccc3C(=O)N([C@H](C)CO)C[C@H]2C)cc1 | -1.9 | .
COc1cc(OC)c2c(OC)c(-c3ccc4c(c3)OCO4)c(=O)oc2c1 | 2.8 | 0.1
C[C@@H]1CN([C@H](C)CO)C(=O)c2cccc(NS(=O)(=O)c3cccs3)c2O[C@@H]1CN(C)C(=O)Nc1ccccc1 | 0.6 | .
C[C@@H]1CN([C@@H](C)CO)C(=O)c2cccc(NC(=O)Nc3ccccc3)c2O[C@H]1CN(C)C(=O)Nc1ccc2c(c1)OCO2 | -6.0 | .
NNC(=O)c1ccc(CSc2ccc(C(F)(F)F)cn2)o1 | -2.7 | 0.5
CCN(CC)C(=O)Cn1cc(SCC(N)=O)c2ccccc21 | 1.7 | 0.0

Record cards, from the list above:
NNC(=O)c1ccc(CSc2ccc(C(F)(F)F)cn2)o1 reads BJeLR viability = -2.7; A1 inhib = 0.5
C=CCc1cccc(C=Nc2cccn3cc(-c4ccccc4)nc23)c1O reads BJeLR viability = 5.8; A1 inhib = .

Pulled one by one from above (3):
molecule | BJeLR viability | A1 inhib
C=CCc1cccc(C=Nc2cccn3cc(-c4ccccc4)nc23)c1O | 5.8 | .
C[C@@H]1CN([C@H](C)CO)C(=O)c2cccc(NS(=O)(=O)c3cccs3)c2O[C@@H]1CN(C)C(=O)Nc1ccccc1 | 0.6 | .
CCN(CC)C(=O)Cn1cc(SCC(N)=O)c2ccccc21 | 1.7 | 0.0

(further entries)
molecule | BJeLR viability | A1 inhib
O=C1C(=Cc2cccn2-c2ccc(O)cc2)C(=O)c2ccccc21 | 3.4 | -0.9
C[C@H](CO)N1C[C@H](C)[C@@H](CN(C)S(=O)(=O)c2cn(C)cn2)Oc2ccc(NS(=O)(=O)c3ccc(F)cc3)cc2C1=O | 2.2 | 0.2
N#Cc1c(OCC(F)(F)F)ccc(Sc2ncccn2)c1OCC(F)(F)F | -1.6 | -0.9
O=C(Cn1c2ccccc2n2ncnc12)c1ccc(-c2ccccc2)cc1 | -2.0 | 1.6
Cn1nnc(NCc2cc(Br)ccc2OCc2ccccc2F)n1 | -1.6 | 1.0
C[C@H]1CN([C@@H](C)CO)C(=O)c2cccc(NS(=O)(=O)c3ccc(F)cc3)c2O[C@@H]1CN(C)CC1CC1 | 5.0 | .
C[C@@H]1CN([C@@H](C)CO)C(=O)c2cc(NC(=O)CCN3CCOCC3)ccc2O[C@@H]1CN(C)S(=O)(=O)c1cn(C)cn1 | -0.2 | 0.1
O=C(Nc1ccccc1)C(=S)N1CCOCC1 | 2.4 | 0.5
CCOc1ccc(C(=O)SC2=NCCS2)cc1 | 2.0 | 0.7
CCn1c(=O)cc(OCC(=O)N2CCCCC2C)c2ccccc21 (stereo not given) | -3.1 | .

(continued)
Every second line gives: BJeLR viability	A1 inhib
Cc1noc(C)c1NC(=O)Nc1cccc2c1O[C@H](CN(C)Cc1ccc(Oc3ccccc3)cc1)[C@@H](C)CN([C@H](C)CO)C2=O
 : -6.8	.
Cc1ccc(S(=O)(=O)Nc2cccc3c2O[C@@H](CN(C)C(=O)NC(C)C)[C@H](C)CN([C@@H](C)CO)C3=O)cc1
 : -1.7	.
CNC(=O)CCCn1nc(C)c2sc3ccccc3c2c1=O
 : 0.8	-0.1
C[C@@H]1CN([C@H](C)CO)C(=O)c2cccc(NC(=O)C3CCCCC3)c2O[C@@H]1CN(C)S(=O)(=O)c1cccs1
 : -7.7	.
C[C@H](CO)N1C[C@H](C)[C@@H](CN(C)C(=O)Nc2ccccc2)Oc2c(cccc2N(C)C)C1=O
 : -9.5	.
CNC[C@H]1Oc2c(N)cccc2C(=O)N([C@@H](C)CO)C[C@@H]1C
 : -0.5	.
COc1cc(C[C@H]2C(=O)OC[C@@H]2Cc2ccc(O[C@@H]3O[C@H](CO)[C@@H](O)[C@H](O)[C@H]3O)c(OC)c2)ccc1O
 : 2.1	0.1
CC(=O)N1c2ccccc2NC2=C(C(=O)CCC2)C1c1ccco1 (stereo not given)
 : 4.0	0.2
C[C@@H]1CN([C@@H](C)CO)C(=O)c2cc(NC(=O)NC3CCCCC3)ccc2O[C@@H]1CN(C)Cc1ccc(C(F)(F)F)cc1
 : 0.1	0.1
CC/C=C/c1ccc(C)cc1CCCCCC(=O)O
 : -6.6	-0.7
O=C(Cn1c(=O)oc2cc(S(=O)(=O)N3CCCC3)ccc21)N1CCCC1
 : 2.2	0.2
O=C(O)C1CSC(c2ccccc2Cl)N1C(=O)c1ccccc1F (stereo not given)
 : -2.2	0.1
S=c1nc(NCCc2ccccc2Cl)c2ccccc2[nH]1
 : 1.6	-0.1
C=C1C(=O)O[C@@H]2C3C(=C(C)[C@@H](O)[C@@H](OC(=O)/C(=C/C)COC(C)=O)[C@@H]12)C(=O)[C@H]1O[C@@]31C (stereo not given in full)
 : 89.7*	0.9
Nc1ccc2nn(-c3ccccc3)nc2c1
 : 4.1	-4.4
Cc1cc(C)nc(SCc2cnc(C)nc2N)n1
 : 2.2	.
C[C@@H]1CN([C@@H](C)CO)C(=O)c2cccc(NS(=O)(=O)c3cn(C)cn3)c2O[C@@H]1CN(C)Cc1ccc(Cl)c(Cl)c1
 : -1.1	.
C[C@@H]1CN([C@@H](C)CO)C(=O)c2cc(NS(C)(=O)=O)ccc2O[C@@H]1CN(C)C(=O)Nc1ccccc1
 : -6.1	-0.5
O=S(=O)(NCc1ccc2c(c1)CCO2)c1ccc(F)c(F)c1
 : 0.5	-0.1
Cc1cc(-c2cc(C)[nH]n2)n[nH]1
 : -1.5	0.3
COc1ccc(-c2cc3nc(C)c(CCC(=O)NCc4ccc5c(c4)OCO5)c(C)n3n2)c(OC)c1
 : -3.6	.
C[C@H]1[C@H](C)CC[C@]2(C(=O)O)CC[C@]3(C)C(=CCC4[C@@]5(C)C[C@@H](O)[C@H](O)[C@@](C)(CO)C5[C@H](O)C[C@]43C)[C@H]12 (stereo not given in full)
 : -3.1	-0.3
CC(C(=O)N1CCCCCC1)n1sc2ccccc2c1=O (stereo not given)
 : 3.1	0.6
CC(C)NC(=O)N(C)C[C@@H]1Oc2ccc(NS(C)(=O)=O)cc2C(=O)N([C@H](C)CO)C[C@H]1C
 : 1.1	0.6
CC(=O)NS(=O)(=O)c1ccc(NC(=O)COc2ccc(Cl)cc2C)cc1
 : -4.1	.
C[C@H](CO)N1C[C@H](C)[C@@H](CN(C)Cc2ccc3c(c2)OCO3)Oc2ccc(NC(=O)CCCCCC(=O)Nc3ccccc3N)cc2C1=O
 : 0.9	.
CCOC(=O)c1cc(C#N)c(Oc2ccc(C)cc2)nc1C(F)(F)F
 : 5.5	-0.7
CN1N=C(c2coc3ccccc23)CC1(O)C(F)(F)F (stereo not given)
 : 2.4	-3.3
COc1cc(/C=C2\SC(N(C)c3ccc(O)cc3)=NC2=O)ccc1OCC(=O)O
 : -4.0	0.4
C[C@@H]1CN([C@@H](C)CO)C(=O)c2cc(NC(=O)C3CC3)ccc2O[C@@H]1CN(C)S(=O)(=O)c1cn(C)cn1
 : 0.7	0.2
C=C(CO)C(=O)O[C@H]1C[C@H]2C(=C)C[C@H](OC(=O)C(=C)CO)[C@H]3C(=C)C(=O)O[C@@H]3[C@H]2C1=C
 : 43.7	1.9
COc1ccc(S(=O)(=O)Nc2cccc3c2O[C@H](CN(C)Cc2ccccc2)[C@@H](C)CN([C@@H](C)CO)C3=O)cc1
 : 0.8	.
O=C(O)C1CC=CCC1C(=O)Nc1ccccc1S (stereo not given)
 : -3.2	.
Cc1ccc(S(=O)(=O)c2ccc(-c3ccccc3)cc2)cc1
 : 2.9	-0.7
C[C@H]1CN([C@@H](C)CO)C(=O)c2cccc(NC(=O)Nc3ccccc3)c2O[C@@H]1CN(C)S(=O)(=O)c1ccccc1
 : 1.0	.
C[C@@H]1CN([C@@H](C)CO)C(=O)c2cc(NC(=O)CCCCCC(=O)Nc3ccccc3N)ccc2O[C@@H]1CN(C)C
 : 5.6	.
C[C@H]1CN([C@@H](C)CO)C(=O)c2cccc(NC(=O)Nc3ccc(F)cc3)c2O[C@@H]1CN(C)Cc1ccc2c(c1)OCO2
 : -4.9	.
CNC[C@H]1Oc2ccc(NC(=O)C3CC3)cc2C(=O)N([C@H](C)CO)C[C@H]1C
 : -1.1	-0.2
C[C@@H]1CN([C@@H](C)CO)C(=O)c2cc(NC(=O)c3ccncc3)ccc2O[C@H]1CN(C)Cc1ccc(C(F)(F)F)cc1
 : 7.0	-0.3
Cc1ccc(S(=O)(=O)Nc2cccc3c2O[C@H](CN(C)S(=O)(=O)c2ccccc2)[C@H](C)CN([C@H](C)CO)C3=O)cc1
 : 5.2	.
C[C@H]1CN([C@@H](C)CO)C(=O)c2cc(NS(C)(=O)=O)ccc2O[C@H]1CN(C)S(=O)(=O)c1ccc(Cl)cc1
 : -1.5	-0.6
Cc1ccc(SCC(=O)n2c3ccccc3c3ccccc32)cc1
 : 0.8	.
O=C(CC(c1ccco1)C1CCCCC1=O)c1ccccc1 (stereo not given)
 : 1.0	0.2
C[C@H](CO)N1C[C@H](C)[C@@H](CN(C)C(=O)Nc2ccc(F)cc2)Oc2c(NC(=O)Nc3ccc4c(c3)OCO4)cccc2C1=O
 : -0.6	.
O=C(CCc1nc2cccnc2n1-c1ccccc1)N1CCCCC1
 : -0.2	.
Cc1ccc(S(=O)(=O)N(C)C[C@@H]2Oc3ccc(NC(=O)Cc4cn(C)c5ccccc45)cc3C(=O)N([C@@H](C)CO)C[C@@H]2C)cc1
 : -3.5	-0.7
COc1ccc(C(CC(=O)c2ccccc2)CC(=O)c2ccccc2)cc1
 : 9.0	0.9
COc1ccc(/C=C/C=N/n2c(SC)nnc2-c2ccccc2)cc1
 : -6.8	0.0
C[C@H]1CN([C@@H](C)CO)C(=O)c2cccc(NC(=O)Nc3cccc4ccccc34)c2O[C@@H]1CN(C)S(=O)(=O)c1ccc(F)cc1
 : 0.5	.
CCN1CCN(C(=O)c2ccc3c(c2)N(Cc2ccc(C)cc2)CCS3)CC1
 : 5.1	-0.5
